High-throughput results deposited in PubChem by National Center for Advancing Translational Sciences (NCATS).
VDR inhibitor: vitamin D3 receptor (human) inhibition. P11473. 400,000 tested, 0.93% active. Potency, µM, inactives show max response, negative = inhibition, usual class: inhibitors. VDR-SRC2-3 peptide fluorescence polarization, 2 h. AID 504847; active = well fitted inhibition curve with a large enough effect; inconclusive = small, poorly fitted or top-dose-only effect, or another doubt; inactive = no such curve, though single readings can be large or run the other way; note: series mostly up to about 120 µM
Target sequence (P11473 whole entry, looked up): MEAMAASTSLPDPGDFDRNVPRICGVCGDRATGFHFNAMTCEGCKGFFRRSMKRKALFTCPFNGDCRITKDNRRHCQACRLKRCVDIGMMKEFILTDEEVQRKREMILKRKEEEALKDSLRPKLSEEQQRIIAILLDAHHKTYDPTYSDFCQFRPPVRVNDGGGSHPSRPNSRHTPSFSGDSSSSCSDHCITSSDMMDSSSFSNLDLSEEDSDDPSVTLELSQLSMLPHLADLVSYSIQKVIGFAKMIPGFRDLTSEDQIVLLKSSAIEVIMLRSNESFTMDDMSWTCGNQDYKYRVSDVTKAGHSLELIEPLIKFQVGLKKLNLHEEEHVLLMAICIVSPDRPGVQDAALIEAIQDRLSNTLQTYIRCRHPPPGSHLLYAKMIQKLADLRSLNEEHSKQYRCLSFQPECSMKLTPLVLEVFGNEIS
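Fluorescence polarization assay measuring small-molecule disruption of VDR binding to the coregulator peptide SRC2-3. Compounds were pin-transferred (23 nl) into the reagent mix and incubated 2 h at room temperature before reading.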
Starred values were filed as active, the others as inactive; ? = inconclusive; [ ] = dose if it differs, or a comment. % is set by controls: 0 for no effect and ±100 for the full control effect; potency is the fitted concentration of half-maximal effect.

SMILES | VDR inhibitor
Cc1ccc(CNC(=O)N2CCN(C)CC2)cc1 | -13%
Cc1ccc2occ(/C=N/NC(=O)c3ccncc3)c(=O)c2c1 | -12%
O=C(NO)c1ccc(OC(F)F)cc1 | -8%
COc1ccc(-c2nc3cnc(N4CCNCC4)nc3n(Cc3cccs3)c2=O)cc1 | 72%[activator]
COc1cc(OC)c(C2N(c3cc(C)on3)C(=O)C3CCCN32)cc1OC (centres undefined) | -15%
C=CC[C@@H](CC(=O)N[C@H](CO)Cc1ccccc1)C(=O)NC[C@H](OC(=O)[C@@H](CC=C)Cc1ccc(F)cc1)c1ccccc1 | -18%
CCCc1ccc(C(=O)CN2C(=O)C(=O)N(C3CCCC3)C2=O)cc1 | 10%
CC(=O)NCC1CCCN(Cc2cn(-c3ccccc3)nc2-c2ccc3c(c2)OCO3)C1 (centres undefined) | -9%
Cc1c(-c2csc(N)n2)cnn1C | -17%
COc1ccc(NC(=O)C2CCN(S(=O)(=O)c3c(C)noc3/C=C/c3cccs3)CC2)cc1 | -11%
O=C1CCCc2[nH]c3cccc(/C(=C/c4ccccc4)c4ccccc4)c3c21 | 10%
O=C(CSc1nnc(COc2ccc(Cl)cc2)o1)N1CCOCC1 | -19%
CCN(CC)S(=O)(=O)c1ccc2c(c1)c(C(=O)O)cn2C | 14%
O=C(CCl)c1ccc2c(c1)CCN2C(=O)C1CCCCC1 | 45µM*
Cc1ccc(S(=O)(=O)N/N=C/c2cccs2)cc1 | -7%
Cc1onc(-c2ccccc2)c1C(=O)N1CCN(Cc2ccccc2)CC1 | -13%
CCCCC(=O)NNC(=O)CC(=O)Nc1ccccc1C(=O)O | -5%
Cc1ccc(OCC(=O)OC2CCS(=O)(=O)C2)cc1 (centres undefined) | 15%
Cc1ccc(C(=O)C(C)OC(=O)CNC(=O)c2ccc(Br)o2)cc1 (centres undefined) | -1%
Cn1nnnc1SCC1=C(C(=O)O)N2C(=O)[C@@H](NC(=O)[C@@H](O)c3ccccc3)[C@@H]2SC1 | ?
CCOC(=O)CN1C(C(=O)c2ccccc2)=C(OC(=O)c2ccccc2)c2ccccc2S1(=O)=O | 9%
COc1ccc(NC(=O)CSc2nc(N)cc(=O)[nH]2)cc1S(=O)(=O)N1CCCCC1 | 0%
S=c1[nH]nc(-c2cc(-c3ccccc3)n[nH]2)n1/N=C/C(Br)=C/c1ccccc1 | -21%
O=c1[nH]c(-c2ccccc2)cnc1-c1ccccc1 | -4%

Random excerpt: two entries already listed.
SMILES | VDR inhibitor
Cc1ccc(C(=O)C(C)OC(=O)CNC(=O)c2ccc(Br)o2)cc1 (centres undefined) | -1%
CCCCC(=O)NNC(=O)CC(=O)Nc1ccccc1C(=O)O | -5%

Later entries.
SMILES | VDR inhibitor
Cc1cc(C)n2nc(C(=O)OCC(=O)Nc3ccc(C)c(S(=O)(=O)N4CCOCC4)c3)nc2n1 | -2%
CCOC(=O)C1=C(O)C(=O)N(C2CCCCC2)C1 | -6%
COc1ccc(CNC(=O)C[C@H]2C(=O)N(CCc3ccccc3)C[C@@H]2Cc2ccccc2)cc1 | -7%
CC(=O)c1cn(S(=O)(=O)c2ccccc2)c2ccccc12 | -18%
CC(Sc1nc(-c2ccccc2)cc(C(F)(F)F)n1)C(=O)N1CCC(C(N)=O)CC1 (centres undefined) | 10%
Cc1nn(CC(=O)NC2CCC(C)CC2)c(C)c1[N+](=O)[O-] (centres undefined) | 7%
O=C(CNC(=O)c1cccc(Br)c1)N/N=C/c1cccs1 | 0%
C=CCOc1ccc(/C(O)=C2\C(=O)C(=O)N(CCCOC)C2c2ccc(O)c(OC)c2)cc1 (centres undefined) | 12%
N#CCCn1nnc(-c2ccccc2F)n1 | 7%
COc1cn(CC(=O)Nc2cccc(C)c2)c(CN2CCCCC2)cc1=O | 8%
CCOC(=O)c1c(C)[nH]c(NC(=O)Nc2ccc(NC(C)=O)cc2)c1C | -4%
O=C(Nc1ccc(Cl)c([N+](=O)[O-])c1)C(NCCCO)c1ccccc1 (centres undefined) | -11%
COc1ccc(-c2cn3nc(N4CCC(C(=O)Nc5cccc(Cl)c5)CC4)sc3n2)cc1 | 13%
CC(=O)Nc1ccc(S(=O)(=O)Nc2nc3ccccc3nc2N2CCc3ccccc3C2)cc1 | ?
Cc1c(-c2ccc(/C=N/NC(=O)C(=O)Nc3ccccc3F)o2)cccc1[N+](=O)[O-] | 1%
COc1ccc(Cl)cc1NC(=O)CCC(=O)N1CCOc2ccccc21 | 8%
C=CCNC(=O)CN(CCc1ccccc1)S(=O)(=O)c1ccccc1 | -7%
Cn1c(SCc2c(F)cccc2Cl)nc2ccccc2c1=O | -2%
O=C(c1ccco1)N(Cc1ccccc1)Cc1ccccn1 | ?
NNC(=O)c1ccc(COCC(F)(F)F)cc1 | 1%
O=C(ONC1=NCCCCC1)c1ccc([N+](=O)[O-])cc1 | -22%
CCOC(=O)c1oc2ccccc2c1COC(=O)CNC(=O)c1cc(OC)c(OC)c(OC)c1 | 0%
CCN(CC)CCNC(=O)c1ccc(NC(=O)c2cccc(S(=O)(=O)N(C)C3CCCCC3)c2)cc1 | 7%
CCN(CC)S(=O)(=O)c1ccc(N=Nc2cc(C)cc(Br)c2O)cc1 | -12%
O=C(Cn1ncc2c1-c1ccccc1OC2)N1CCc2ccccc21 | -11%
CCOc1ccc(NC(=O)CN2C(=O)c3ccccc3C2=O)cc1 | -20%
CCOC(=O)c1cc(CC)sc1NC(=O)COc1ccc2c(C)cc(=O)oc2c1 | 2%
O=C(Nc1ccc2c(c1)OCO2)C1CCN(C(=O)c2ccc(Cl)cc2)CC1 | 8%
Cc1ccc(S(=O)(=O)N(C)C)cc1-n1c(SCC(=O)N(C)C)nc2ccccc2c1=O | -9%
CCC(=O)N1CCc2cc(Br)cc(S(=O)(=O)CCC(=O)NCc3ccccc3OC)c21 | -7%
COc1cc2c(C(=O)N3CCN(c4cccc(Cl)c4)CC3)cn(CC(C)C)c(=O)c2cc1OC | 3%
c1cc2c3c(cccc3c1)NC1(CCCC1)N2 | -21%
COc1ccc(C)cc1NC(=O)C1CCN(S(=O)(=O)c2cc(Br)cc3c2N(C(C)=O)CC3)CC1 | 6%
Cc1cc(N2CCCCC2)nc2ccccc12 | 3%
O=S(=O)(c1ccc(F)cc1F)N1CCCN(c2ccc(C(F)(F)F)cn2)CC1 | -3%
O=C(COC(=O)[C@@H]1CCCN1C(=O)c1cccs1)Nc1ccc(Br)cc1 | -17%
O=C(NCCO)c1nc(C(=O)c2ccccc2)c2ccccc2n1 | 15%
CC(C)c1c(C(=O)N/N=C/c2ccccc2OCc2c(F)cccc2Cl)nnn1-c1nonc1N | -14%
Cc1ccc(S(=O)(=O)N2CCN(c3cc4c(cc3[N+](=O)[O-])n(C)c(=O)n4C)CC2)cc1 | 1%
O=C(/C=C/c1cccs1)NCc1ccccc1 | -6%
Cc1cc(C)n(CCNC(=O)c2ccco2)n1 | 17%
CCc1ccccc1NC(=O)CN1C(=O)C2CCCN2c2ncc(Cl)cc21 (centres undefined) | -25%
COc1ccc(N2CCN(C(=O)CSc3nc(C)cs3)CC2)cc1 | -3%
Cc1ccc(NC(=O)c2c(N3CCCC3=O)c3cc(C)ccc3n2C)c(C)c1 | 6%
CCOc1ccccc1OCCOc1ccc(F)cc1 | -5%
CC(Nc1nc(-c2ccc(F)cc2)cs1)c1nc2cc(Cl)c(N3CCCCC3)cc2n1CCCO (centres undefined) | -5%
O=C(CSc1nc2[nH]ncc2c(=O)n1-c1ccccc1)N1CCCc2ccccc21 | 19%
C#CCSc1nc2ccccc2c(=O)n1CC=C | -16%

In another format: 15 of the compounds above
mol	VDR inhibitor
Cc1cc(N2CCCCC2)nc2ccccc12	3%
O=S(=O)(c1ccc(F)cc1F)N1CCCN(c2ccc(C(F)(F)F)cn2)CC1	-3%
O=C(COC(=O)[C@@H]1CCCN1C(=O)c1cccs1)Nc1ccc(Br)cc1	-17%
O=C(NCCO)c1nc(C(=O)c2ccccc2)c2ccccc2n1	15%
CC(C)c1c(C(=O)N/N=C/c2ccccc2OCc2c(F)cccc2Cl)nnn1-c1nonc1N	-14%
Cc1ccc(S(=O)(=O)N2CCN(c3cc4c(cc3[N+](=O)[O-])n(C)c(=O)n4C)CC2)cc1	1%
O=C(/C=C/c1cccs1)NCc1ccccc1	-6%
Cc1cc(C)n(CCNC(=O)c2ccco2)n1	17%
CCc1ccccc1NC(=O)CN1C(=O)C2CCCN2c2ncc(Cl)cc21 (centres undefined)	-25%
COc1ccc(N2CCN(C(=O)CSc3nc(C)cs3)CC2)cc1	-3%
Cc1ccc(NC(=O)c2c(N3CCCC3=O)c3cc(C)ccc3n2C)c(C)c1	6%
CCOc1ccccc1OCCOc1ccc(F)cc1	-5%
CC(Nc1nc(-c2ccc(F)cc2)cs1)c1nc2cc(Cl)c(N3CCCCC3)cc2n1CCCO (centres undefined)	-5%
O=C(CSc1nc2[nH]ncc2c(=O)n1-c1ccccc1)N1CCCc2ccccc21	19%
C#CCSc1nc2ccccc2c(=O)n1CC=C	-16%

(list continues)
SMILES | VDR inhibitor
CCC1(c2ccccc2)NC(=O)N(CC(=O)Nc2cc(S(=O)(=O)N3CCCCC3)ccc2N(C)C)C1=O (centres undefined) | 9%
CCCC1=Nc2cc(C(=O)NCCc3ccc(OCC)cc3)ccc2Sc2ccccc21 | -12%
CCOc1ccc(CC(=O)Nc2ccc3nc(N4CCCCC4)cc(C)c3c2)cc1OCC | -11%
C(#Cc1ccccc1)C[N+]1(CC#Cc2cccc3ccccc23)CCCC1 | 2%
O=C(NNC(=S)Nc1ccc(OC(F)F)cc1)c1cc2c(s1)CCCC2 | -8%
CCCC1=C(C(=O)OCC)C(c2ccncc2)n2ncnc2N1 (centres undefined) | 5%
O=C(N/N=C/c1cc(Br)ccc1O)C(c1ccncc1)N1CCOCC1 (centres undefined) | -8%
CC(NC(=O)Cn1cc2c(n1)CCCCC2)c1ccccc1 (centres undefined) | -8%
CCOc1ccccc1C(=O)NCCCCCC(=O)O | -4%
Cc1ccc(/C=C/C(=O)Nc2cc(C)on2)cc1 | -13%
CCCCCOc1ccc(NC(=O)C(=O)NCCCn2ccnc2)cc1 | -7%
COc1ccc(-c2cc(C(=O)NC3CCCC3)no2)cc1OC | 9%
O=C(O)c1c(-c2ccccc2)c2oc3ccccc3c2[nH]c1=O | 2%
CCOc1ccc(C(=O)NCC(C)CN(C)C)cc1OCC (centres undefined) | -3%
Cc1cc(C)cc(CC2CC(=O)N(c3cc(C)ccc3C)C2=O)c1 (centres undefined) | -11%
O=C(O)c1cc(N2N=C(C(F)(F)F)/C(=C/C=C/c3ccco3)C2=O)ccc1Cl | ?
Cc1cc(=O)[nH]c(SCC(=O)Nc2ccccc2[N+](=O)[O-])n1 | -3%
Cc1c(NC(=O)c2cc3ccccc3o2)cccc1-c1nc2ccccc2o1 | 16%
O=C(NCc1ccco1)c1ccc(F)c(S(=O)(=O)N2CCCCC2)c1 | 3%
Cc1ccc(C)c(N2CCN(c3nc4ccccc4c4nc(CCn5nc(C)cc5C)nn34)CC2)c1 | -9%
CC(=O)C[C@@H](O)CC(=O)[C@@H]1OC(=O)[C@H](C)CCCCc2ccccc21 | 0%
O=S(=O)(c1ccc(Sc2nnc3ccccn23)nc1)N1CCOCC1 | -16%
CCOC(=O)c1sc2nc(-c3ccccc3)ccc2c1N | -9%
CCc1ccc(NC(=O)c2sc3nc(C)c(C(=O)Nc4ccc(C)cc4C)c(-c4ccco4)c3c2N)cc1 | -13%
Cc1cnc(C(=O)Nc2cccc3cccnc23)cn1 | 1%
CCn1c(C)cc(/C=C2/SC(=S)N(CC(=O)O)C2=O)c1C | -3%
O=C(NC(=S)Nc1ccc2ncccc2c1)c1ccccc1 | -4%
Cc1ccc2c(c1)C1C[N+](C)(CC(=O)Nc3ccccc3Cl)CCC1N2C(=O)c1ccccc1Cl (centres undefined) | 3%
Cc1c(CNC(C)CCc2ccccc2)c(C(=O)O)c(C)n1Cc1ccc(F)cc1Cl (centres undefined) | 20%
O=C(NC1=NCCS1)NC12CC3CC(CC(C3)C1)C2 | 1%
Cc1cccc(C(=O)NC(C)C(c2cccs2)N2CCOCC2)c1 (centres undefined) | -6%
O=C(Nc1ccc2nc(SCC(=O)N3CCCC3)sc2c1)c1ccccc1 | -6%
O=C(Nc1nnc(C2=COCCO2)o1)c1ccc(S(=O)(=O)N2CCCCC2)cc1 | -5%
COC(=O)CN1C(C)=Nc2ccc(C)cc2C1c1ccccc1 (centres undefined) | 6%
C/C(CC(C)C)=N/Nc1ccc([N+](=O)[O-])cc1[N+](=O)[O-] | ?
COc1ccc(NC(=O)c2cc(S(=O)(=O)N3CCc4ccccc43)cn2C)cc1OC | -7%
OCCCNc1nc(-c2ccccc2)nc2c1oc1ccccc12 | -10%
CCOc1cc(/C=N\Nc2nc(Nc3ccccc3)nc(N3CCOCC3)n2)ccc1OC(=O)c1ccco1 | 2%
CCn1ncc(CN2CCCC(C(=O)c3cccc(OC(C)C)c3)C2)c1C (centres undefined) | 0%
COc1ccccc1C(=O)Nc1ccc(C(=O)O)cc1 | 2%
CCn1c(C(=O)NCCc2ccc(S(N)(=O)=O)cc2)cc2sc(Cl)cc21 | -9%
CN(Cc1ccccc1)S(=O)(=O)c1ccc(F)c(C(=O)Nc2cc(Cl)cc(Cl)c2)c1 | 8%
COc1ccccc1N1CCN(C(=O)C2CCN(S(=O)(=O)c3ccc4c(c3)CC(C)N4C(=O)C3CC3)CC2)CC1 (centres undefined) | -9%
C=CCn1c(C(c2ccccc2)c2ccccc2)n[nH]c1=S | 3%
CC(=O)c1ccc(NC(=O)CS(=O)(=O)c2cn(CC(=O)N3CCOCC3)c3ccccc23)cc1 | -1%
COc1cc(C2CC(=O)Nc3c2c(=O)n(C)c2ncnn32)cc(OC)c1OC (centres undefined) | 5%
CC(C)(C)c1csc(NC(=O)Cc2cccs2)n1 | -6%
COc1ccccc1C(=O)NC(=O)CSc1nc(C)cs1 | 3%
CC1CCC2(CC1)NC(=O)N(CC(=O)NCCc1ccccc1)C2=O (centres undefined) | 14%
Cc1cccc(C)c1NC(=O)CS(=O)CC(=O)NC1CCCc2ccccc21 (centres undefined) | ?

These rows are one share of the data; count on the stated rates, not on these rows.
